NOMO-1 viab – STK33 inhibitor candidate reducing NOMO-1 cell viability | NOMO-1 AML viability, CellTiter-Glo luminescence, 72 h | inhibition, % (test concentration not listed) | hit rate 7.5% among 37,000 | AID 2330;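 active = most replicates above 80%; inconclusive = exactly half above 80%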;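 note: wells of about 30 µL received 25 nL stock; 0% = median of vehicle wells and 100% = reference inhibitor level; the first replicate is given; inactives centre near 10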
* marks the source's active call; other numbers are inactive results; ? = inconclusive.

Molecule | NOMO-1 viab
COc1nonc1NC(C)=O | 11
CNC[C@H]1Oc2c(NS(=O)(=O)c3ccc(C)cc3)cccc2C(=O)N([C@@H](C)CO)C[C@@H]1C | -5
C[C@@H]1CCCCO[C@@H](CN(C)C(=O)c2ccncc2)[C@@H](C)CN([C@H](C)CO)C(=O)c2cc(NC(=O)NC3CCCCC3)ccc2O1 | 0
C[C@@H]1CN([C@@H](C)CO)C(=O)c2cc(NC(=O)CCCCCC(=O)Nc3ccccc3N)ccc2O[C@@H]1CN(C)C(=O)Nc1ccc(C(F)(F)F)cc1 | 25
CS(=O)(=O)N(CC(=O)Nc1c(F)cccc1F)c1ccc(Oc2ccccc2)cc1 | 19
Cn1c(SCC(=O)N2CCc3ccccc32)nnc1-c1ccc(NC(=O)c2ccccc2Br)cc1 | 10
COc1ccc(S(=O)(=O)N(C)C[C@H]2Oc3ccc(N(C)C)cc3C(=O)N([C@H](C)CO)C[C@H]2C)cc1 | -19
COc1ccc(NC(=O)Nc2ccc3c(c2)CC(=O)N([C@H](C)CO)C[C@H](C)[C@H](CN(C)Cc2ccc(C(F)(F)F)cc2)O3)cc1 | 61
COc1ccc(S(=O)(=O)Nc2ccc3c(c2)C(=O)N([C@@H](C)CO)C[C@H](C)[C@@H](CN(C)Cc2ccc(C(=O)O)cc2)O3)cc1 | 1
C[C@H]1CN([C@@H](C)CO)C(=O)c2cccc(NC(=O)Nc3ccc(F)cc3)c2O[C@@H]1CN(C)C(=O)Nc1ccc(F)cc1 | 9
On1onc2c3cc(-c4ccccc4)nc3ccc21 | 115*
C[C@H](CO)N1C[C@H](C)[C@H](CN(C)C(=O)Nc2ccc3c(c2)OCO3)Oc2ccc(NC(=O)Nc3ccc(C(F)(F)F)cc3)cc2CC1=O | 36
CCn1c(SCC(N)=O)nnc1-c1sc2cc(Cl)ccc2c1Cl | 16
Cc1ccc(-c2nc3ncccc3o2)cc1NC(=O)COc1cc(Cl)c(Cl)cc1Cl | 74
C[C@@H]1CN([C@H](C)CO)C(=O)c2cc(N(C)C)ccc2O[C@H]1CN(C)C(=O)NC1CCCCC1 | 8
CNC[C@H]1Oc2c(NS(=O)(=O)c3ccc(C)cc3)cccc2C(=O)N([C@H](C)CO)C[C@@H]1C | 16
C[C@@H]1CN([C@H](C)CO)C(=O)c2cc(NC(=O)Nc3cccc4ccccc34)ccc2O[C@@H]1CN(C)S(=O)(=O)c1ccccc1 | -5
COc1ccc(-c2cc(=O)c3cc(OC)ccc3o2)cc1 | 21
Cc1ccc(NC(=O)CC2NC3CCCCC3NC2=O)cc1C (stereo unspecified) | -10
COc1ccc(S(=O)(=O)Nc2ccc3c(c2)CC(=O)N([C@@H](C)CO)C[C@@H](C)[C@@H](CN(C)S(C)(=O)=O)O3)cc1 | -7
C[C@@H]1CN([C@H](C)CO)C(=O)Cc2cc(NS(=O)(=O)c3cccs3)ccc2O[C@H]1CN(C)C(=O)Nc1ccccc1 | 9
C[C@@H]1CN([C@H](C)CO)C(=O)Cc2cc(NC(=O)Nc3ccc4c(c3)OCO4)ccc2O[C@H]1CN(C)C(=O)Nc1ccc2c(c1)OCO2 | -10
Cc1noc(C)c1NC(=O)N(C)C[C@@H]1Oc2ccc(NC(=O)Nc3ccc(C(F)(F)F)cc3)cc2C(=O)N([C@H](C)CO)C[C@H]1C | -4
O=C(NCCC(c1ccc(F)cc1)c1ccco1)c1cccs1 (stereo unspecified) | -4
COc1ccc(C2OCC3C2CO[C@H]3c2ccc(OC)c(OC)c2)cc1OC (stereo partly specified) | 3

Continued.
Molecule | NOMO-1 viab
CNC[C@@H]1Oc2ccc(NC(=O)CCCN(C)C)cc2C(=O)N([C@H](C)CO)C[C@H]1C | 17
COc1ccc(NC(=O)Nc2ccc3c(c2)C(=O)N([C@H](C)CO)C[C@H](C)[C@H](CN(C)C(=O)Nc2c(C)noc2C)O3)cc1 | -19
COc1ccc(S(=O)(=O)Nc2cccc3c2O[C@H](CN(C)Cc2ccc(-c4ccccc4)cc2)[C@H](C)CN([C@@H](C)CO)C3=O)cc1 | 36
C[C@H]1CN([C@@H](C)CO)C(=O)c2cccc(NS(=O)(=O)c3ccccc3)c2O[C@H]1CN(C)CC1CC1 | 22
Cc1nn(C)c(C)c1CNC(=O)c1cnn2c1NC(c1ccc(Br)cc1)CC2C(F)(F)F (stereo unspecified) | 24
Cc1noc(C)c1NC(=O)N(C)C[C@H]1Oc2c(NC(=O)Nc3ccccc3)cccc2C(=O)N([C@@H](C)CO)C[C@@H]1C | 6
C[C@@H]1CN([C@H](C)CO)C(=O)c2cc(NC(=O)CCN3CCOCC3)ccc2O[C@@H]1CN(C)S(=O)(=O)c1ccc(F)cc1 | -8
O=C(O)CC(C(=O)Nc1ccc(Cl)cc1)N1CCCC1 (stereo unspecified) | 6
Cc1ccc(S(=O)(=O)N(C)C[C@H]2Oc3ccc(NC(=O)Nc4ccc(F)cc4)cc3C(=O)N([C@@H](C)CO)C[C@H]2C)cc1 | 15
COc1ccc(S(=O)(=O)Nc2cccc3c2O[C@@H](CN(C)S(=O)(=O)c2c(C)noc2C)[C@@H](C)CN([C@H](C)CO)C3=O)cc1 | 1
O=C(CSc1nc(-c2ccccc2)cs1)Nc1ccc(Cl)cc1Cl | -7
Cc1ccc2cccc(OCC(=O)Nc3ccc(C)c([N+](=O)[O-])c3)c2n1 | 2
COc1ccc(S(=O)(=O)N(C)CC(=O)Nc2cccc(C)c2C)cc1Cl | -7
C[C@H](CO)N1C[C@H](C)[C@H](CN(C)Cc2ccc3c(c2)OCO3)Oc2ccc(NS(=O)(=O)c3ccc(F)cc3)cc2CC1=O | 2
Cc1ccc2ccc(C(Nc3ccccn3)c3cccc([N+](=O)[O-])c3)c(O)c2n1 (stereo unspecified) | 112*
C[C@H]1CN([C@@H](C)CO)C(=O)c2cccc(N(C)C)c2O[C@@H]1CN(C)C(=O)Nc1ccc(F)cc1 | 14
C[C@H]1CN([C@@H](C)CO)C(=O)Cc2cc(NC(=O)NC3CCCCC3)ccc2O[C@@H]1CN(C)Cc1ccc(Oc2ccccc2)cc1 | 95*
OC1(c2ccc(Cl)cc2)CCN(Cc2c[nH]c3ccccc23)CC1 | 69
Cc1cc(=O)[nH]c(SCCOc2ccc(F)cc2)n1 | 4
C[C@H](CO)N1C[C@H](C)[C@H](CN(C)CC2CC2)Oc2c(NS(C)(=O)=O)cccc2C1=O | 18
C[C@@H]1CN([C@H](C)CO)C(=O)c2cc(NS(C)(=O)=O)ccc2O[C@H]1CN(C)Cc1ccc(-c2ccccc2)cc1 | 17
Cc1ccc(S(=O)(=O)Nc2ccc3c(c2)C(=O)N([C@H](C)CO)C[C@H](C)[C@@H](CN(C)C(=O)NC(C)C)O3)cc1 | -4
C[C@@H]1CN([C@@H](C)CO)C(=O)Cc2cc(NC(=O)CCN3CCOCC3)ccc2O[C@@H]1CN(C)S(=O)(=O)c1ccc(Cl)cc1 | -17
COC(=O)c1cc(OC)c(OC)cc1NC(=O)C(C)Oc1ccc(Br)cc1 (stereo unspecified) | 28
Cc1ccc(S(=O)(=O)Nc2ccc(Br)cc2CNc2nc3ccccc3n2C)cc1 | 23

Continued:
Molecule | NOMO-1 viab
C[C@H](CO)N1C[C@H](C)[C@H](CN(C)C)Oc2ccc(NC(=O)c3ccncc3)cc2CC1=O | -1
Cc1ccc(S(=O)(=O)Nc2ccc3c(c2)CC(=O)N([C@H](C)CO)C[C@H](C)[C@H](CN(C)S(=O)(=O)c2c(C)noc2C)O3)cc1 | 22
CC(C)NC(=O)Nc1ccc2c(c1)CC(=O)N([C@@H](C)CO)C[C@H](C)[C@@H](CN(C)S(=O)(=O)c1ccc(F)cc1)O2 | 18
Cc1noc(C)c1S(=O)(=O)N(C)C[C@@H]1Oc2ccc(NC(=O)C3CCCCC3)cc2CC(=O)N([C@H](C)CO)C[C@@H]1C | 4
Cn1c(SCc2nc3ccccc3s2)nnc1-c1cccnc1 | 16
O=C(CCn1cnc2ccccc2c1=O)Nc1ccccc1F | -12
O=C(C1CCCO1)N1CCN(C(=S)Nc2ccc(S(=O)(=O)Nc3ncccn3)cc2)CC1 (stereo unspecified) | -32
C[C@H](CO)N1C[C@H](C)[C@@H](CN(C)CC2CCCCC2)Oc2c(NS(=O)(=O)c3cccs3)cccc2C1=O | 3
COc1ccc(CN2C(=O)c3cccc4cccc(c34)C2=O)cc1S(=O)(=O)N1CCOCC1 | 57
COC(=O)c1ccccc1NC(=O)Cn1cnc2sc(C)c(C)c2c1=O | 6
COc1cc(Cl)c(C)cc1NC(=O)C(CC(C)C)N1C(=O)c2ccccc2C1=O (stereo unspecified) | 15
CSc1sc(C(=O)NN)c2c1C1(CCC2)SCCS1 | 50
C[C@@H]1CCCCO[C@H](CN(C)C(=O)CCCN(C)C)[C@@H](C)CN([C@H](C)CO)C(=O)c2cc(NS(=O)(=O)c3cn(C)cn3)ccc2O1 | -17
C[C@@H]1CCCCO[C@H](CN(C)C(=O)CCCN(C)C)[C@@H](C)CN([C@H](C)CO)C(=O)c2cc(NC(=O)c3ccccc3)ccc2O1 | 3
CCOc1ccc2nc(SCc3c(F)c(F)c(F)c(F)c3F)[nH]c2c1 | 32
Cc1ccc(S(=O)(=O)N(C)C[C@H]2Oc3c(NS(=O)(=O)c4ccccc4)cccc3C(=O)N([C@H](C)CO)C[C@@H]2C)cc1 | 11
C[C@H](CO)N1C[C@H](C)[C@@H](CN(C)C(=O)Nc2ccc(C(F)(F)F)cc2)Oc2c(NC(=O)CCCCCC(=O)Nc3ccccc3N)cccc2C1=O | 49
C[C@@H]1CN([C@H](C)CO)C(=O)c2cc(NC(=O)CCN3CCOCC3)ccc2O[C@H]1CN(C)S(=O)(=O)c1ccccc1 | -6
Cc1noc(C)c1NC(=O)Nc1cccc2c1O[C@@H](CN(C)C(=O)Nc1c(C)noc1C)[C@H](C)CN([C@@H](C)CO)C2=O | -14
O=C(O)CCc1ccc(-c2ccccc2)n1-c1ccc([N+](=O)[O-])cc1 | 11
CC(C)(Oc1ccc(Cl)cc1)C(=O)NCc1ccco1 | -10
Cc1ccc(S(=O)(=O)Nc2ccc3c(c2)CC(=O)N([C@@H](C)CO)C[C@@H](C)[C@@H](CN(C)Cc2ccccc2)O3)cc1 | 39
Cc1ccc(-n2c(Cn3ncc4ccccc4c3=O)n[nH]c2=S)c(Br)c1 | -27
C[C@H]1CN([C@@H](C)CO)C(=O)Cc2cc(NC(=O)CCC(F)(F)F)ccc2O[C@@H]1CN(C)Cc1ccc(Oc2ccccc2)cc1 | 65
C[C@@H]1CN([C@H](C)CO)C(=O)Cc2cc(NS(C)(=O)=O)ccc2O[C@@H]1CN(C)S(=O)(=O)c1cccs1 | 23

(cont.)
Molecule | NOMO-1 viab
C[C@@H]1CN([C@H](C)CO)C(=O)c2cc(NC(=O)Nc3ccc(F)cc3)ccc2O[C@@H]1CN(C)Cc1ccc(-c2ccccc2)cc1 | 92*
CNC[C@H]1OCCCC[C@@H](C)Oc2ccc(NS(=O)(=O)c3ccc(C)cc3)cc2C(=O)N([C@H](C)CO)C[C@@H]1C | 15
CCc1ccc(C(Nc2cc(C)ccn2)c2ccc3ccc(C)nc3c2O)cc1 (stereo unspecified) | 89*
C[C@H](CO)N1C[C@H](C)[C@@H](CN(C)C(=O)Nc2ccc(F)cc2)Oc2c(NC(=O)Nc3ccc4c(c3)OCO4)cccc2C1=O | 0
Cc1noc(C)c1NC(=O)N(C)C[C@@H]1Oc2ccc(NC(=O)CCN3CCOCC3)cc2CC(=O)N([C@@H](C)CO)C[C@@H]1C | 15
COc1ccc(S(=O)(=O)Nc2ccc3c(c2)C(=O)N([C@H](C)CO)C[C@H](C)[C@H](CN(C)C(=O)CCCN(C)C)OCCCC[C@@H](C)O3)cc1 | -1
C[C@H]1CN([C@@H](C)CO)C(=O)c2cccc(NC(=O)Nc3cccc4ccccc34)c2O[C@@H]1CN(C)S(=O)(=O)c1ccc(F)cc1 | -1
COc1ccc(/C=C/C=N/n2c(SC)nnc2-c2ccccc2)cc1 | ?
Cc1ccc(S(=O)(=O)N(C)C[C@@H]2Oc3ccc(NC(=O)Cc4cn(C)c5ccccc45)cc3C(=O)N([C@@H](C)CO)C[C@@H]2C)cc1 | 19
COc1ccc(-c2csc3ncn(CC(=O)Nc4sc5c(c4C#N)CCC5)c(=O)c23)cc1OC | 23
CC(C)NC(=O)Nc1cccc2c1O[C@@H](CN(C)C(=O)Nc1cccc3ccccc13)[C@H](C)CN([C@H](C)CO)C2=O | 18
COc1ccc(S(=O)(=O)N(C)C[C@H]2Oc3ccc(NS(=O)(=O)c4ccc(Cl)cc4)cc3CC(=O)N([C@@H](C)CO)C[C@@H]2C)cc1 | 18
CO[C@H]1C=C[C@@](C)(O)/C=C/C(=O)O[C@H](C)[C@@H](C)CC/C=C\1C | 56
C[C@H]1CN([C@@H](C)CO)C(=O)c2cc(NC(=O)CCCCCC(=O)Nc3ccccc3N)ccc2O[C@H]1CN(C)S(=O)(=O)c1cn(C)cn1 | 18

Grouped by structure: the compounds so far with a thiophene ring, fused or not (8)
Molecule | NOMO-1 viab
CCn1c(SCC(N)=O)nnc1-c1sc2cc(Cl)ccc2c1Cl | 16
C[C@@H]1CN([C@H](C)CO)C(=O)Cc2cc(NS(=O)(=O)c3cccs3)ccc2O[C@H]1CN(C)C(=O)Nc1ccccc1 | 9
O=C(NCCC(c1ccc(F)cc1)c1ccco1)c1cccs1 (stereo unspecified) | -4
C[C@H](CO)N1C[C@H](C)[C@@H](CN(C)CC2CCCCC2)Oc2c(NS(=O)(=O)c3cccs3)cccc2C1=O | 3
COC(=O)c1ccccc1NC(=O)Cn1cnc2sc(C)c(C)c2c1=O | 6
CSc1sc(C(=O)NN)c2c1C1(CCC2)SCCS1 | 50
C[C@@H]1CN([C@H](C)CO)C(=O)Cc2cc(NS(C)(=O)=O)ccc2O[C@@H]1CN(C)S(=O)(=O)c1cccs1 | 23
COc1ccc(-c2csc3ncn(CC(=O)Nc4sc5c(c4C#N)CCC5)c(=O)c23)cc1OC | 23

Screening data (PubChem)

The list is partial. The share of hits here may be higher or lower than overall.
